# RecA splice inh – inhibitors of M. tuberculosis RecA intein splicing; cell-free RecA intein splicing, fluorescence; inhibition, %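 (about 9 µM by stock and volumes)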; P9WHJ3; 290,000 compounds, 0.75% hits; in the data active means inhibition above about 30%;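 further: 0% = vehicle wells and 100% = reference inhibitor control wells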
# Target sequence (P9WHJ3 whole entry, looked up, canonical isoform): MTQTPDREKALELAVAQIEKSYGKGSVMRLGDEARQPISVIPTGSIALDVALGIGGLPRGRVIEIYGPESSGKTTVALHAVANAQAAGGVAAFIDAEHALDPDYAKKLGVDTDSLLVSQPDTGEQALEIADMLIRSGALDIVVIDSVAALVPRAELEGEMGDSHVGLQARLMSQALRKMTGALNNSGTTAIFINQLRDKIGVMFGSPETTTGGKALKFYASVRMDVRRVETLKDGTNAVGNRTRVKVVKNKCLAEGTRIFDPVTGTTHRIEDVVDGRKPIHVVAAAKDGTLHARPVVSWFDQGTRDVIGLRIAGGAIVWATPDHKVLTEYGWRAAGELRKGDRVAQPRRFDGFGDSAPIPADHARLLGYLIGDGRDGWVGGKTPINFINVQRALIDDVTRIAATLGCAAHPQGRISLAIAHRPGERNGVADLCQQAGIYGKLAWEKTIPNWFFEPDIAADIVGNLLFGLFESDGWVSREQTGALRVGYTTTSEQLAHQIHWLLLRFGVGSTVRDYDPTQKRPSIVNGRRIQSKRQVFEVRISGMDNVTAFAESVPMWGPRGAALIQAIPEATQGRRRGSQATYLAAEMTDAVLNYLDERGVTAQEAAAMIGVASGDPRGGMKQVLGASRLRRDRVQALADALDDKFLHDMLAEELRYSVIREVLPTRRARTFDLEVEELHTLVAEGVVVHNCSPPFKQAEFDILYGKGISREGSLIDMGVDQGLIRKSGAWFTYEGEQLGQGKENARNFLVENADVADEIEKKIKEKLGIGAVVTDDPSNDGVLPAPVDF
# YopH PTP inh – blocks Yersinia enterocolitica YopH tyrosine phosphatase; fluorescence Ex485/Em525; inhibition, %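 (about 10 µM by stock and volumes)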; 140,000 compounds, 0.16% hits; AID 898;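 active means inhibition of 50% or more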;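 further: controls were vehicle for no effect and minimum signal wells for full effect; inactives centre near -20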
# Arbovirus inh – blocks arbovirus infection; arbovirus infection cell-based antiviral screen; inhibition, % at 10 µM; 200,000 compounds, 0.37% hits; AID 1251;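 active means inhibition from about 30%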;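 further: bluetongue infection of BSR cells; cell survival read as ATP light after 72 h; 0% = infected wells without compound and 100% = uninfected wells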
# Mtb H37Rv – M. tuberculosis H37Rv growth inhibitors, H37Rv strain (AID 1626); 220,000 compounds, 0.95% hits; M. tuberculosis H37Rv growth inhibition; higher % means a stronger effect; inhibition, % at 10 µM, or IC50 in µM where a hit was titrated;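 active means confirmed in a dose series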;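 further: bacteria incubated seven days before Alamar blue readout; 0% = bacteria only wells and 100% = bacteria with antibiotic wells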
# Mtb betalactam – beta-lactam sensitization of Mtb H37Rv; M. tuberculosis H37Rv growth with meropenem, percent inhibition; hits of this screen are not shown here; 330,000 compounds, 0.27% hits; inhibition, % at 25 µM;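 active means about 74% or more and at least 40 points above the plate without the antibiotic, then above 30% in a dose series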;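 further: growth measured after seven days incubation then overnight dye step; 0% = bacteria only wells and 100% = bacteria with antibiotic; twin plates without the antibiotic show which effects depend on it; some results filed as inactive read as strong as hits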
# Arbovirus inh repeat – also measured in Arbovirus inh; calls as there; inhibition, %; measured here: 10K subset replicate screen; many hits read low in the repeat;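 first of two repeat runs on a subset; 0% = infected and 100% = uninfected wells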
# The depositor's hits bear a star; . = not tested or not shown.
SMILES,RecA splice inh,YopH PTP inh,Arbovirus inh,Mtb H37Rv,Mtb betalactam,others
Cc1ccc(C(=O)COC(=O)C2CC3CCCC(C2)C3=O)cc1[N+](=O)[O-] (stereo not drawn),-1.5,.,.,.,1,
CCCN1CCC(=O)N(CCSc2ccccc2)CC1,1.9,.,.,.,-10,
CC(=O)NCc1ccc(-c2nc3ccccc3s2)cc1,3.3,.,-4,3%,-3,
O=C(CCc1ccccc1)NNC(=O)COc1ccccc1,0.8,-30,2,10%,3,
Cc1occc1C(=O)NCc1ccc(C(=O)O)o1,4.6,-22,1,-12%,-11,
O=C1CC(C(=O)Nc2cccc(F)c2)n2ncnc2N1 (stereo not drawn),0.0,.,5,0%,3,
CCCOc1cccc(-c2cc(C(=O)N/N=C/c3cccnc3)c3ccccc3n2)c1,12,.,.,.,1,
COc1ccc(N2CC(C(=O)N[C@H](C(=O)NC(C)c3ccccc3)C(C)C)CC2=O)cc1 (stereo partly drawn),-0.1,.,.,.,0,
COCCCn1c2nc3ccccc3nc2c2c(=O)n(Cc3ccccc3Cl)cnc21,-1.6,.,.,-12%,-1,
CCO[C@@H]1OC(C(=O)NCc2ccccc2)=C[C@H](c2ccccc2)[C@H]1CCCO,1.3,.,-4,-9%,1,
Cc1cccc(NC(=O)Cn2c(=O)oc3ccccc32)c1,-1.9,-47,4,.,-2,
COC(=O)c1ccc([C@H]2C=C(C(=O)O)O[C@@H](OCc3ccc(CO)cc3)C2)cc1,3.0,.,.,3%,-8,
COc1ccc2nc(SCC(=O)NC3(C#N)CCCCC3)[nH]c2c1,-0.4,.,.,.,-1,
O=C(NCCc1ccccc1)C1CCCN(C(=O)NC2CCCCC2)C1 (stereo not drawn),-5.7,-22,3,5%,2,
COc1cc(C(=O)Nc2ccc3c(c2)N(C(=O)CCN(C)C)c2ccccc2CC3)cc(OC)c1OC,-0.2,.,-9,-3%,-6,
O=C(Cn1c(=O)oc2ccccc21)N1CCCCC1,2.2,6,-2,1%,-4,
COc1ccc(Cl)cc1NC(=O)CC(=O)Nc1cc(Cl)ccc1OC,-1.9,.,.,.,4,
O=C(COC(=O)C1CCCCC1)Nc1ccc([N+](=O)[O-])cc1,5.1,.,4,-5%,-8,
Cc1ccccc1NS(=O)(=O)c1cc(OCC(N)=O)c(C)cc1Cl,-0.7,.,1,-2%,2,
O=C(NC1CC(=O)c2sccc21)c1ccc(Cl)cc1Cl (stereo not drawn),-2.7,.,-6,3%,-3,
COc1cc(C(=O)NCc2ccc3c(c2)cc(C)n3C)cc(OC)c1OC,1.5,.,-7,7%,7,
Cc1onc(-c2ccccc2Cl)c1C(=O)N1CC(C)OC(C)C1 (stereo not drawn),3.6,-53,0,0%,5,
O=C(COC(=O)c1ccccc1)NCc1ccco1,-1.0,-27,1,-5%,-3,
COc1ccccc1C(=O)NCC(C)(C)CN=C1NS(=O)(=O)c2ccccc21,0.1,.,.,.,8,
CCCn1c(SCc2ccc(C(=O)OC)o2)nc2ccccc2c1=O,17,.,.,.,2,
CC(CC(=O)O)C(=O)c1ccc(Cl)c([N+](=O)[O-])c1 (stereo not drawn),-0.1,.,6,0%,1,
Cc1cc(C)c(-c2csc(NC(=O)CCCc3nc4ccccc4c(=O)[nH]3)n2)c(C)c1,2.9,.,.,.,0,
O=C(Cn1c(=O)oc2ccccc21)N1CCN(c2ccccc2)CC1,-3.7,29,1,2%,-7,
O=C(COC(=O)c1cnccn1)c1ccccc1,0.9,-12,-1,.,.,
COc1ccc(S(=O)(=O)N[C@@H](CC(C)C)C(=O)O)cc1,-1.5,-2,-7,0%,-5,

# Random excerpt: five compounds from above.
SMILES,RecA splice inh,YopH PTP inh,Arbovirus inh,Mtb H37Rv,Mtb betalactam,others
O=C(Cn1c(=O)oc2ccccc21)N1CCN(c2ccccc2)CC1,-3.7,29,1,2%,-7,
Cc1cc(C)c(-c2csc(NC(=O)CCCc3nc4ccccc4c(=O)[nH]3)n2)c(C)c1,2.9,.,.,.,0,
COc1ccc(S(=O)(=O)N[C@@H](CC(C)C)C(=O)O)cc1,-1.5,-2,-7,0%,-5,
O=C(NC1CC(=O)c2sccc21)c1ccc(Cl)cc1Cl (stereo not drawn),-2.7,.,-6,3%,-3,
COc1ccc(Cl)cc1NC(=O)CC(=O)Nc1cc(Cl)ccc1OC,-1.9,.,.,.,4,

# (more compounds)
SMILES,RecA splice inh,YopH PTP inh,Arbovirus inh,Mtb H37Rv,Mtb betalactam,others
CC(=O)Nc1ccc(S(=O)(=O)NNC(=O)COc2ccc(C(C)(C)C)cc2)cc1,3.6,-34,4,-5%,6,
O=C(Nc1nc(-c2ccc3c(c2)OCO3)cs1)C1COc2ccccc2O1 (stereo not drawn),3.3,-21,52*,5%,-4,Arbovirus inh repeat=33*
CCCCCCCCC(=O)O,0.7,.,.,7%,-4,
COCCNC(=O)NC(=O)COC(=O)c1ccc2[nH]c3c(c2c1)CCCC3,-1.9,.,1,7%,3,
O=C(NCc1ccc(F)cc1)C1CCCN(S(=O)(=O)c2cccc3nsnc23)C1 (stereo not drawn),5.1,-11,-4,-3%,1,
CC1CCCN(C(=O)CSCC(=O)Nc2nc(-c3cccs3)cs2)C1 (stereo not drawn),4.9,0,2,50%,-8,
CC(C)(C)SCCNS(=O)(=O)c1ccc(C#N)cc1,-0.9,.,.,-9%,-2,
CCCCNC(=S)N(Cc1c(C)noc1C)c1ccccc1,-3.5,-23,-5,-10%,6,
CCN(CC)C(=O)c1sc2[nH]c(=S)n(-c3ccccc3)c(=O)c2c1C,-0.7,-15,0,-2%,1,
COC(=O)COC(=O)c1ccc(Oc2nc(OC)nc(N(C)C)n2)cc1,0.9,-50,-5,-6%,1,Arbovirus inh repeat=0
Cc1ccc(NC(=O)NN2CCN(C)CC2)cc1C,1.9,.,.,.,2,
COc1ccc(CN2C(=O)C(O)(CC(=O)c3c(C)n[nH]c3C)c3ccccc32)cc1OC (stereo not drawn),.,-4,-7,-10%,4,
COc1ccc(OC)c(Nc2ncnc3sccc23)c1,0.7,.,.,.,1,
Cc1cc(C(=O)Nc2c(C)cccc2C)n(-c2ccccc2)n1,-2.6,-47,-7,-3%,2,
COc1ccc2c(C)c(Cc3ccccc3)c(=O)oc2c1OC,2.6,.,2,-2%,-1,

# Reprinted from the part before: 3 compounds, then new ones.
SMILES,RecA splice inh,YopH PTP inh,Arbovirus inh,Mtb H37Rv,Mtb betalactam,others
COc1ccc(OC)c(Nc2ncnc3sccc23)c1,0.7,.,.,.,1,
Cc1cc(C(=O)Nc2c(C)cccc2C)n(-c2ccccc2)n1,-2.6,-47,-7,-3%,2,
COc1ccc2c(C)c(Cc3ccccc3)c(=O)oc2c1OC,2.6,.,2,-2%,-1,
C#CCOCCOCCOCCNc1nc(N2CCN(C(=O)[C@H](CCCCN)n3cc(C(N)[C@H](C)CC)nn3)CC2)nc(N2CCN(C(=O)[C@H](CCC(=O)O)n3cc(C(N)[C@H](C)CC)nn3)CC2)n1 (stereo partly drawn),0.9,.,3,.,-2,
CCOc1ccc(C(CC(=O)O)NC(=O)COc2ccc3ccccc3c2)cc1OC (stereo not drawn),-0.6,.,.,.,-3,
O=C(Nc1cccnc1)c1cc(-c2ccc(Cl)c(Cl)c2)on1,3.3,.,.,.,6,
Cc1cccc(NC2=NC(=S)N(CC#N)C23CCCCC3)c1,-0.6,-13,-11,0%,2,
C=CCCOc1ccccc1C(N)=O,3.0,.,.,-1%,-5,
COc1ccc(-c2nc(C#N)c(NCC3CCCO3)o2)cc1 (stereo not drawn),.,-10,-1,1%,-7,
CNC(=O)N1CCC(C(=O)c2c(C)c(C)c(C)c(C)c2C)CC1,-1.7,.,.,.,-3,
Nc1ccc(OCc2ccco2)cc1,-6.4,.,-5,5.2µM*,98,
CCOc1ccc(Cc2c(Cl)nc(SC)nc2N(C)C)cc1,3.4,-14,27,9%,19,
COc1cc(-c2nc3n(n2)C(c2cccc(OC)c2OC)C2=C(CCCC2=O)N3)cc(OC)c1OC (stereo not drawn),3.2,-18,-9,3%,-16,
CC(C)c1onc(C(=O)NCc2ccccn2)c1[N+](=O)[O-],0.5,.,8,5%,-1,
CCOc1ccc(NC(=O)C2CSC(c3ccncc3)=N2)cc1 (stereo not drawn),-7.6,-18,7,55%,-7,Arbovirus inh repeat=2
COc1cc(C(=O)N(CCc2ccccc2)C2CC3CCC(C2)N3C)cc(OC)c1OC (stereo not drawn),-5.5,-25,0,4%,5,
Cc1ccc(OCC(=O)Sc2ccc(C)cc2)cc1,15,-13,3,5%,-1,
Cc1nn(-c2ccccc2)c(C)c1NC(=O)COC(=O)c1ccc(S(=O)(=O)C(F)F)cc1,2.6,.,.,.,-14,
O=C(Nc1ccc(C(O)(C(F)(F)F)C(F)(F)F)cc1)c1ccc(Cl)c([N+](=O)[O-])c1,16,-12,-31,23%,63,
C=CCn1c(O)c(C(C)=NCCN2CCOCC2)c(=O)[nH]c1=O,-0.6,-13,6,12%,-1,
O=C(Cc1ccccc1F)Nc1nc(-c2ccc(F)cc2)cs1,5.2,.,.,.,12,
CCS(=O)(=O)N1CCC(NC(=O)c2cc(OC)cc(OC)c2)CC1,0.6,-7,6,-16%,11,
O=C(CCN1C(=O)C2C3C=CC(C4CC34)C2C1=O)Oc1ccc(Br)cc1 (stereo not drawn),-0.6,.,0,1%,8,
CC(=O)c1cccc(N(CC(=O)NC2CCCCC2)C(=O)Cn2nnc(-c3ccccc3)n2)c1,3.3,.,.,.,-9,
CNS(=O)(=O)c1ccc(N2CCCC2=O)c([N+](=O)[O-])c1,3.4,-25,-1,9%,4,
COC(=O)C1CCN(c2ccc(C(N)=O)cc2[N+](=O)[O-])CC1,-0.9,-29,0,1%,5,
Cc1ccccc1NC(=O)CC1(c2ccc(N(C)C)cc2)C(=O)c2ccccc2C1=O,1.6,1,-10,-9%,-4,
CC(CCCC(C)(C)O)NCCO (stereo not drawn),-0.5,-38,0,-9%,13,Arbovirus inh repeat=1
O=C(CCN1C(=O)/C(=C\c2ccccc2Cl)SC1=S)Nc1cccnc1,0.5,.,.,.,-9,
Cc1csc(NC(=O)c2c(-c3ccccc3)noc2C)n1,1.2,.,.,.,10,
CCC(=O)Nc1nnc(S(=O)(=O)N2CCCc3ccccc32)s1,-1.1,.,.,.,-14,

# For convenience, some entries already given.
SMILES,RecA splice inh,YopH PTP inh,Arbovirus inh,Mtb H37Rv,Mtb betalactam,others
Cc1csc(NC(=O)c2c(-c3ccccc3)noc2C)n1,1.2,.,.,.,10,
CCC(=O)Nc1nnc(S(=O)(=O)N2CCCc3ccccc32)s1,-1.1,.,.,.,-14,

# An excerpt, so the mix of outcomes need not match the whole.
